Compound activity: PubChem, Broad Institute
NOMO-1 viab – STK33 inhibitor candidate reducing NOMO-1 cell viability. NOMO-1 AML viability, CellTiter-Glo luminescence, 72 h. 7.5% of 37,000 active. inhibition, % (concentration not given with the values);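 active = most replicates above 80%; inconclusive = exactly half above 80%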;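 also: wells of about 30 µL received 25 nL stock; 0% = median of vehicle wells and 100% = reference inhibitor level; the first replicate is given; inactives centre near 10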
Active calls of the source: *; ? = inconclusive. Not all compounds are listed. The share of hits here may be higher or lower than overall.

SMILES | NOMO-1 viab
Cc1ccc(OC(C)(C)C(=O)Nc2ccc(Oc3ccc(F)cc3F)nc2)c2c1CCC2 | 13.5
Cc1cc(C)cc(NC(=O)CC2NCCNC2=O)c1 (stereo unspecified) | 1.0
C[C@@H]1CN([C@H](C)CO)C(=O)Cc2cc(NC(=O)Cc3cn(C)c4ccccc34)ccc2O[C@@H]1CN(C)Cc1ccc(-c2ccccc2)cc1 | 110.2*
CC(CC(=O)O)CC(=O)Nc1ccc(C(=O)O)cc1 (stereo unspecified) | -11.4
C[C@H](CO)N1C[C@H](C)[C@@H](CN(C)Cc2ccc(-c3ccccc3)cc2)Oc2c(NC(=O)Nc3ccc4c(c3)OCO4)cccc2C1=O | 6.8
COc1ccc(NC(=O)N(C)C[C@H]2Oc3c(NS(C)(=O)=O)cccc3C(=O)N([C@H](C)CO)C[C@@H]2C)cc1 | -3.1
Cc1ccc(S(=O)(=O)Nc2ccc3c(c2)C(=O)N([C@@H](C)CO)C[C@@H](C)[C@@H](CN(C)Cc2ccc4c(c2)OCO4)O3)cc1 | 31.8
C[C@@H]1CCCCO[C@@H](CN(C)C(=O)Nc2cccc3ccccc23)[C@@H](C)CN([C@H](C)CO)C(=O)c2cc(NC(=O)CCCCCC(=O)Nc3ccccc3N)ccc2O1 | ?
COc1ccc(C)cc1NC(=O)C(=S)NCc1ccco1 | 25.1
CC(=O)Nc1ccc(N=Cc2ccc(N3CCOCC3)cc2)cc1 | -2.4
C[C@@H]1CN([C@H](C)CO)C(=O)c2cc(NC(=O)CCC(F)(F)F)ccc2O[C@@H]1CN(C)S(=O)(=O)c1ccc(F)cc1 | -10.6
Cc1ccc(S(=O)(=O)Nc2ccc3c(c2)C(=O)N([C@H](C)CO)C[C@H](C)[C@@H](CN(C)Cc2ccc(C(=O)O)cc2)OCCCC[C@@H](C)O3)cc1 | -14.9
CCOC(=O)c1sc2ncn(CC(=O)Nc3ccccc3Cl)c(=O)c2c1C | 11.2
COc1ccc(CN(C)C[C@@H]2Oc3c(NC(=O)C4CC4)cccc3C(=O)N([C@@H](C)CO)C[C@H]2C)cc1 | -7.3
COc1cc2c(cc1OC)Cc1cc(OC)c(OC)cc1Cc1cc(OC)c(OC)cc1C2 | -13.2
C[C@H](CO)N1C[C@H](C)[C@H](CN(C)Cc2ccc(Cl)c(Cl)c2)Oc2ccc(NC(=O)CCN3CCOCC3)cc2CC1=O | 24.4
CC(=O)O[C@@H]1CC[C@@]2(C)C(CC[C@@H](C)[C@]23Cc2c(O)cc4c(c2O3)CNC4=O)C1(C)C (stereo partly specified) | 53.1
COc1ccc(S(=O)(=O)Nc2ccc3c(c2)C(=O)N([C@H](C)CO)C[C@H](C)[C@@H](CN(C)C(=O)c2ccncc2)OCCCC[C@@H](C)O3)cc1 | 13.4
Cc1noc(C)c1NC(=O)Nc1ccc2c(c1)CC(=O)N([C@H](C)CO)C[C@H](C)[C@H](CN(C)Cc1ccccc1)O2 | 25.5
C[C@H]1CN([C@@H](C)CO)C(=O)Cc2cc(NC(=O)Cc3ccccc3)ccc2O[C@H]1CN(C)S(=O)(=O)c1cn(C)cn1 | 1.9
C[C@H](CO)N1C[C@H](C)[C@@H](CN(C)Cc2ccc(C(=O)O)cc2)Oc2c(NC(=O)NC3CCCCC3)cccc2C1=O | 4.1
O=C(CSc1nnnn1-c1ccccc1Cl)Nc1ccc(F)cc1 | 14.6
C[C@@H]1CCCCO[C@H](CN(C)Cc2ccc(C(=O)Nc3ccccc3N)cc2)[C@@H](C)CN([C@H](C)CO)C(=O)c2cc(NS(=O)(=O)c3ccc(Cl)cc3)ccc2O1 | 126.6*
C[C@@H]1CN([C@H](C)CO)C(=O)Cc2cc(NS(C)(=O)=O)ccc2O[C@@H]1CN(C)C(=O)Nc1ccccc1 | 0.3
Cc1cc(NC(=O)C2CC=CCC2C(=O)O)ccc1NC(=O)c1ccccc1 (stereo unspecified) | 0.2
COc1ccc(NC(=O)Nc2cccc3c2O[C@H](CN(C)CC2CCCCC2)[C@H](C)CN([C@H](C)CO)C3=O)cc1 | 15.2
Cc1cccc(NC(=S)N2CCCCC2C)c1 (stereo unspecified) | 23.1
CNC[C@H]1Oc2c(NC(=O)c3nc4ccccc4s3)cccc2C(=O)N([C@@H](C)CO)C[C@H]1C | 9.5
COCc1cc(=O)[nH]c2c1c(-c1cccs1)nn2C | -31.7
CCc1nc(SCS(=O)(=O)c2ccc(C)cc2)c(C#N)c2c1CCCC2 | -4.8
COc1ccc(C(=O)CCC(=O)Nc2cccnc2)cc1OC | 15.5
C[C@H](CO)N1C[C@H](C)[C@H](CN(C)C)Oc2ccc(NC(=O)C3CC3)cc2CC1=O | -7.4
COc1cc2c(cc1NC(=O)COc1ccc(Br)cc1Cl)oc1ccccc12 | 127.7*
Cc1nn(C(=O)Cn2cc([N+](=O)[O-])cn2)c(C)c1Br | 13.4
C[C@@H]1CN([C@H](C)CO)C(=O)c2cc(NC(=O)c3ccncc3)ccc2O[C@@H]1CN(C)Cc1ccc(Oc2ccccc2)cc1 | 21.6
Cc1ccc(S(=O)(=O)Nc2ccc3c(c2)C(=O)N([C@@H](C)CO)C[C@H](C)[C@H](CN(C)Cc2ccc(C(=O)O)cc2)O3)cc1 | -1.7
COc1ccc(-c2nnc(SCC(=O)c3ccc(Cl)cc3)n2-c2ccc(C)cc2)cc1OC | 62.5
Cc1ccc(C(=O)Nc2ccc(OCC(=O)O)cc2)cc1 | 13.0
N=c1c2c3c(sc2ncn1Nc1ccccc1)CCC3 | 65.9
C[C@H](CO)N1C[C@H](C)[C@H](CN(C)Cc2ccc(Cl)c(Cl)c2)Oc2ccc(NC(=O)CCC(F)(F)F)cc2C1=O | -5.0
Cc1noc(C)c1S(=O)(=O)Nc1cccc2c1O[C@H](CN(C)Cc1ccc(C(=O)Nc3ccccc3N)cc1)[C@H](C)CN([C@@H](C)CO)C2=O | 137.2*
C[C@@H]1CCCCO[C@H](CN(C)C(=O)CCC(F)(F)F)[C@@H](C)CN([C@H](C)CO)C(=O)c2cc(NS(=O)(=O)c3ccccc3)ccc2O1 | -8.1
COc1cc(C)c(Br)cc1S(=O)(=O)NCCN1CCOCC1 | 39.9
C[C@@H]1CCCCO[C@@H](CN(C)C(=O)C2CCCCC2)[C@@H](C)CN([C@H](C)CO)C(=O)c2cc(NC(=O)Nc3ccc(F)cc3)ccc2O1 | 9.1
Cc1ccc(OCC(=O)Oc2cccc(NC3=NS(=O)(=O)c4ccccc43)c2)cc1 | -5.1
Cc1cc(OCC(=O)Nc2ncn[nH]2)ccc1Cl | 10.2
COC(=O)CNC(=O)c1cn(-c2ccccc2)nc1-c1ccc(OC)cc1 | 112.7*
Cc1noc(C)c1S(=O)(=O)N(C)C[C@H]1Oc2c(NC(=O)c3cnccn3)cccc2C(=O)N([C@@H](C)CO)C[C@H]1C | 4.8
Cc1noc(C)c1NC(=O)Nc1cccc2c1O[C@@H](CN(C)S(=O)(=O)c1ccc(F)cc1)[C@@H](C)CN([C@@H](C)CO)C2=O | 29.7
C[C@@H]1CCCCO[C@H](CN(C)S(=O)(=O)c2cccs2)[C@@H](C)CN([C@H](C)CO)C(=O)c2cc(NS(=O)(=O)c3cn(C)cn3)ccc2O1 | 2.1

(next part)
SMILES | NOMO-1 viab
COc1ccc(S(=O)(=O)Nc2ccc3c(c2)CC(=O)N([C@H](C)CO)C[C@@H](C)[C@H](CN(C)CC2CC2)O3)cc1 | -5.7
Cc1c(CCC(=O)O)c(=O)oc2c(C)c(OCc3cccc4ccccc34)ccc12 | -11.7
C[C@@H]1CN([C@@H](C)CO)C(=O)c2cc(NC(=O)Cc3ccccc3)ccc2O[C@H]1CN(C)Cc1ccc(C(F)(F)F)cc1 | 74.8
C=C1[C@H](O)C[C@H]2[C@@H](/C=C(\C)C(=O)[C@@]3(O)C[C@H](C)[C@H](O)[C@@H]3[C@H]1O)C2(C)C | 8.8
CC(C)NC(=O)Nc1cccc2c1O[C@@H](CN(C)Cc1ccc3c(c1)OCO3)[C@H](C)CN([C@@H](C)CO)C2=O | -22.9
COc1ccc(CCN(C)CCc2ccc(OC)c(OC)c2)cc1OC | 12.4
O=C(CSc1nc(-c2ccccc2)cc(=O)[nH]1)Nc1ccc(Cl)cc1 | 4.9
Cc1noc(C)c1S(=O)(=O)N(C)C[C@H]1Oc2ccc(N(C)C)cc2CC(=O)N([C@@H](C)CO)C[C@H]1C | 16.6
C[C@@H]1CN([C@H](C)CO)C(=O)c2cc(NC(=O)c3ccncc3)ccc2O[C@@H]1CN(C)C(=O)Nc1ccccc1 | 6.2
C[C@@H]1CN([C@H](C)CO)C(=O)c2cccc(NS(=O)(=O)c3ccc(Cl)cc3)c2O[C@H]1CN(C)CC1CCCCC1 | 26.9
Cc1noc(C)c1NC(=O)Nc1ccc2c(c1)CC(=O)N([C@H](C)CO)C[C@@H](C)[C@H](CN(C)Cc1ccc(C(F)(F)F)cc1)O2 | 27.9
CCc1ccc(NC(=O)CC2NCCNC2=O)cc1 (stereo unspecified) | 6.4
CC(C)NC(=O)N(C)C[C@H]1Oc2ccc(NC(=O)NC3CCCCC3)cc2C(=O)N([C@@H](C)CO)C[C@@H]1C | 0.4
Cc1noc(C)c1NC(=O)N(C)C[C@@H]1OCCCC[C@@H](C)Oc2ccc(NS(=O)(=O)c3ccc(F)cc3)cc2C(=O)N([C@H](C)CO)C[C@@H]1C | -10.6
C[C@@H]1CN([C@H](C)CO)C(=O)c2cc(NC(=O)Nc3cccc4ccccc34)ccc2O[C@H]1CN(C)S(C)(=O)=O | 7.7
CC(C)NC(=O)N(C)C[C@H]1Oc2ccc(NS(=O)(=O)c3cn(C)cn3)cc2CC(=O)N([C@@H](C)CO)C[C@H]1C | 3.9
COc1ccc(NC(=O)N(C)C[C@H]2Oc3c(NC(=O)C4CCOCC4)cccc3C(=O)N([C@H](C)CO)C[C@H]2C)cc1 | 15.2
C[C@@H]1CN([C@H](C)CO)C(=O)c2cc(NC(=O)C3CCCCC3)ccc2O[C@@H]1CN(C)S(=O)(=O)c1cn(C)cn1 | 4.9
CNC[C@@H]1Oc2ccc(NS(=O)(=O)c3ccc(OC)cc3)cc2C(=O)N([C@@H](C)CO)C[C@H]1C | 29.0
Cc1ccc([N+](=O)[O-])cc1NC(=O)CSc1nnnn1C1CC2CCC1C2 (stereo unspecified) | -2.2

As a working copy, part of the list above.
SMILES | NOMO-1 viab
CNC[C@@H]1Oc2ccc(NS(=O)(=O)c3ccc(OC)cc3)cc2C(=O)N([C@@H](C)CO)C[C@H]1C | 29.0
Cc1ccc([N+](=O)[O-])cc1NC(=O)CSc1nnnn1C1CC2CCC1C2 (stereo unspecified) | -2.2

(continued)
SMILES | NOMO-1 viab
CCOC(=O)Cc1n[nH]c(CC(=O)OCC)n1 | 9.3
Cc1ccc(S(=O)(=O)Nc2ccc3c(c2)CC(=O)N([C@@H](C)CO)C[C@H](C)[C@H](CN(C)C(=O)NC(C)C)O3)cc1 | 25.6
C[C@@H]1CN([C@H](C)CO)C(=O)Cc2cc(NC(=O)c3ccncc3)ccc2O[C@@H]1CN(C)CC1CC1 | 26.7
CCOC(=O)C1=C(Cn2cnc3ccccc32)NC(=O)NC1c1cc(C)ccc1C (stereo unspecified) | 26.8
Cc1noc(C)c1S(=O)(=O)N(C)C[C@H]1Oc2ccc(NS(=O)(=O)c3ccc(F)cc3)cc2CC(=O)N([C@@H](C)CO)C[C@H]1C | 6.1
Cc1ccc(S(=O)(=O)N(C)C[C@H]2Oc3ccc(NS(=O)(=O)c4ccc(F)cc4)cc3C(=O)N([C@@H](C)CO)C[C@H]2C)cc1 | 25.9
COc1ccc(NC(=S)SC)cc1OC | 87.2*
Cc1noc(C)c1S(=O)(=O)N(C)C[C@H]1Oc2c(NC(=O)c3nc4ccccc4s3)cccc2C(=O)N([C@H](C)CO)C[C@H]1C | 46.3
C[C@H]1CN([C@@H](C)CO)C(=O)c2cccc(NS(=O)(=O)c3ccc(F)cc3)c2O[C@H]1CN(C)S(C)(=O)=O | -15.1
COc1ccc(CCn2c(C)nc(=O)c(-c3ccccc3)c2C)cc1OC | 3.0

A few values from above:
`Cc1noc(C)c1S(=O)(=O)N(C)C[C@H]1Oc2ccc(NS(=O)(=O)c3ccc(F)cc3)cc2CC(=O)N([C@@H](C)CO)C[C@H]1C` in NOMO-1 viab reads 6.1
`C[C@H]1CN([C@@H](C)CO)C(=O)c2cccc(NS(=O)(=O)c3ccc(F)cc3)c2O[C@H]1CN(C)S(C)(=O)=O` in NOMO-1 viab reads -15.1
`Cc1noc(C)c1S(=O)(=O)N(C)C[C@H]1Oc2c(NC(=O)c3nc4ccccc4s3)cccc2C(=O)N([C@H](C)CO)C[C@H]1C` in NOMO-1 viab reads 46.3
`Cc1ccc(S(=O)(=O)Nc2ccc3c(c2)CC(=O)N([C@@H](C)CO)C[C@H](C)[C@H](CN(C)C(=O)NC(C)C)O3)cc1` in NOMO-1 viab reads 25.6
`COc1ccc(CCn2c(C)nc(=O)c(-c3ccccc3)c2C)cc1OC` in NOMO-1 viab reads 3.0
`C[C@@H]1CN([C@H](C)CO)C(=O)Cc2cc(NC(=O)c3ccncc3)ccc2O[C@@H]1CN(C)CC1CC1` in NOMO-1 viab reads 26.7

Going on with the list:
SMILES | NOMO-1 viab
COc1ccc(OC)c(NC(=O)CSc2nnc(-c3ccc(C)c(Cl)c3)n2-c2ccccc2)c1 | -26.9
CNC[C@@H]1Oc2ccc(NC(=O)Nc3ccc(F)cc3)cc2C(=O)N([C@H](C)CO)C[C@H]1C | 6.4
N#Cc1cc2c(nc1SCC(=O)Nc1ccccc1C(F)(F)F)CCC2 | -3.8
C[C@H]1CN([C@@H](C)CO)C(=O)c2cc(N(C)C)ccc2O[C@@H]1CN(C)C(=O)Nc1ccc(C(F)(F)F)cc1 | 17.0
COc1ccc(NC(=O)C2CC(C)=C(C)CC2C(=O)O)c(N2CCOCC2)n1 (stereo unspecified) | -6.6
CCn1c(SCC(=O)Nc2cc(Cl)ccc2OC)nnc1-c1ccc(Br)cc1 | 25.0
COc1ccc(S(=O)(=O)Nc2ccc3c(c2)C(=O)N([C@H](C)CO)C[C@@H](C)[C@@H](CN(C)S(=O)(=O)c2ccc(F)cc2)O3)cc1 | -8.8
COc1ccc(NC(=O)N(C)C[C@@H]2Oc3ccc(NS(=O)(=O)c4ccc(OC)cc4)cc3CC(=O)N([C@@H](C)CO)C[C@@H]2C)cc1 | 8.3
O=C(COc1ccc(S(=O)(=O)N2CCOCC2)cc1)Nc1ccccc1C(F)(F)F | 5.9
